Assay outcomes (PubChem)
EPAC1 ag val – Validation qHTS for agonist of cAMP-regulated guanine nucleotide exchange factor 3 (EPAC1). Rap guanine nucleotide exchange factor 3 (Homo sapiens), O95398. EPAC1 Rap1b BODIPY-GDP exchange, fluorescence. Potency, µM, for the others: max response, positive = active, actives largely listed as activators. 1% of 16,000 active; active = well fitted activation curve with a large enough effect; inconclusive = small, poorly fitted or top-dose-only effect; inactive = no such curve, though single readings can be large or run the other way;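 also: nearly all actives have a fitted effect of over 70% in size; series mostly up to about 76 or 150 µM; scaled to a cAMP control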
Target sequence (O95398 whole entry, looked up): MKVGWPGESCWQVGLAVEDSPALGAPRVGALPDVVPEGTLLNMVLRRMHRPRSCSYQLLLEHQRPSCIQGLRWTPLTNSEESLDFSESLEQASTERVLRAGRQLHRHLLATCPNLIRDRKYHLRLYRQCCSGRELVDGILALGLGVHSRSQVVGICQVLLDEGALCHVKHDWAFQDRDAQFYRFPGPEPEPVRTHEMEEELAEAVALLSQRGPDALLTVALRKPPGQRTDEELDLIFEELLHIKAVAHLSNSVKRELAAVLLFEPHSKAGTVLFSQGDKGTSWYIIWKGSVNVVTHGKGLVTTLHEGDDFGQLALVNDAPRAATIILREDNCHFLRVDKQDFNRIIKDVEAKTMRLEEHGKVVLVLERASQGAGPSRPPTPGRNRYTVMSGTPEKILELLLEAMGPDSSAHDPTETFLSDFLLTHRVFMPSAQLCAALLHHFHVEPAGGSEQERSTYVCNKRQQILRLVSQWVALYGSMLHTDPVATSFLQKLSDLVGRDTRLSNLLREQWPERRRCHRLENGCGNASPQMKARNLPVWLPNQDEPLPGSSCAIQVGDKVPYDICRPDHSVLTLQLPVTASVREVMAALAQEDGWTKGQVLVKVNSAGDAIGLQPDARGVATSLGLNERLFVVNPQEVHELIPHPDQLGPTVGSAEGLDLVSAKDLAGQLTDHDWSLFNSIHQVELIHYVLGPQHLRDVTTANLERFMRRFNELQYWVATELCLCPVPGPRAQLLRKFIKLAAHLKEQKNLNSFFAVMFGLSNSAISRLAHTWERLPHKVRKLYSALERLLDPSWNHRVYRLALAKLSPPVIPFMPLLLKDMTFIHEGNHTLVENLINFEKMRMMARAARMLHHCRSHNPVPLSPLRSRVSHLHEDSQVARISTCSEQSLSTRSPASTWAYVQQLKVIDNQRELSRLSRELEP
Numbers without * were called inactive; ? = inconclusive; & = joins results of further samples; [ ] = dose if it differs, or a comment. % is scaled to controls: 0 for no effect and ±100 for the full control effect; potency is read from the fitted curve at half-maximal effect. Only part of the results is shown. The share of hits here may be higher or lower than overall.

Sample of the layout (3 entries):
cpd	EPAC1 ag val	Molecule
1	-5%&0%	N[C@H](C(=O)O)[C@@H]1C[C@@H]1C(=O)O
2	2%	COc1ccc2c(c1)CCc1cnc(-n3ncc(C(=O)NCCN4CCOCC4)c3C)nc1-2
3	27%	O=C(c1cccc(F)c1)N1CCC2(CCCN(c3ccncc3)C2)CC1

This part in full (from the top)
cpd	EPAC1 ag val	Molecule
1	-5%&0%	N[C@H](C(=O)O)[C@@H]1C[C@@H]1C(=O)O
2	2%	COc1ccc2c(c1)CCc1cnc(-n3ncc(C(=O)NCCN4CCOCC4)c3C)nc1-2
3	27%	O=C(c1cccc(F)c1)N1CCC2(CCCN(c3ccncc3)C2)CC1
4	?	COC(=O)C(C)c1ccc(C(=O)c2cccs2)cc1 (stereo unspecified)
5	10%	C[C@@H]1CN(Cc2ccc3c(c2)CN(Cc2nc(-c4ccccc4)cs2)CCO3)C[C@H](C)O1
6	6%	CC1(C)S[C@@H]2[C@H](NC(=O)[C@H](N)c3ccccc3)C(=O)N2[C@H]1C(=O)OCOC(=O)[C@@H]1N2C(=O)C[C@H]2S(=O)(=O)C1(C)C
7	-22%	C=C1c2c(Cl)ccc(O)c2C(O)=C2C(=O)[C@]3(O)C(O)=C(C(N)=O)C(=O)C(N(C)C)C3C(O)C12 (stereo partly specified)
8	-13%	Cc1cnc(CNc2ccnc(-c3ccc(N(C)C)cc3)n2)cn1
9	2%&3%	CC1(C)OC[C@@H](COC(=O)CCc2ccc(OC[C@@H](O)CNCCNC(=O)N3CCOCC3)cc2)O1
10	-5%	CN(C)c1ccc(/C=C/c2ccnc3c2ccc2c(/C=C/c4ccc(N(C)C)cc4)ccnc23)cc1
11	-17%	Cc1ccccc1-c1nc(NCc2cccnc2)c2ccccc2n1
12	-35%[inhibitor]	CC(O)CN(CCN(CC(C)O)CC(C)O)CC(C)O (stereo unspecified)
13	-9%	CCOC(=O)Cc1cccc(-c2cc(CCCCCCc3ccc(O[C@H]4O[C@H](COC(C)=O)[C@@H](OC(C)=O)[C@H](OC(C)=O)[C@@H]4OC(C)=O)c(-c4cccc(CC(=O)OCC)c4)c3)ccc2O[C@H]2O[C@H](COC(C)=O)[C@@H](OC(C)=O)[C@H](OC(C)=O)[C@@H]2OC(C)=O)c1
14	20%	O=C(c1cccc(F)c1)N1CCC2(CC1)CN(c1ccccn1)C2
15	-16%	CC(=O)NCCNc1nc(-c2c(C)noc2C)nc2ccccc12
16	1%	Cc1c(C(=O)N(C)C2CCOC2)sc2ncnc(NCc3ccc4c(c3)OCO4)c12 (stereo unspecified)
17	8%&-7%	CSc1ccc(C(=O)c2[nH]c(=O)[nH]c2C)cc1
18	3%	CN(C)Cc1ccccc1-c1nc(N2CCOCC2)c2ccccc2n1
19	-12%	O=c1ccc2cc3ccoc3cc2o1
20	-55%[inhibitor]	Cc1cnc(CNc2ncnc3ccc(-c4ccc(C(=O)N(C)C)cc4)cc23)cn1
21	-18%	COc1ccc(-n2c(=O)c(-c3ccccc3)nc3cnc(N4CCOCC4)nc32)cc1
22	-13%	Cc1ccccc1-c1nc(N(C)C)c2ccccc2n1
23	2%	CC(=O)NCCNc1ccnc(-c2ccccc2C)n1
24	-2%	COCCn1c(=O)c(-c2cn(C)c3ccccc23)nc2cnc(N3CCNCC3)nc21
25	13%	CC(=O)N[C@@H](CCC(N)=O)C(=O)O
26	-8%	COCC1CCCN(Cc2ccc3c(c2)CN(C(=O)c2cnn(C(C)C)c2)CCO3)C1 (stereo unspecified)
27	0%	Cn1c(-c2ccncc2)nc2cc(C(=O)N3CCCC3c3nccs3)cc(NC(=O)C3CCC3)c21 (stereo unspecified)
28	7%	CC1(C)O[C@H]2C[C@@H]3[C@H]4CCC5=CC(=O)C=C[C@]5(C)[C@@]4(F)[C@@H](O)C[C@]3(C)[C@]2(C(=O)CO)O1
29	?	c1ccc2c(N3CCNCC3)nc(-c3ccoc3)nc2c1
30	?	O=C(C[n+]1csc2ccccc21)c1ccccc1
31	?	COc1cc(C/C=C/c2ccccc2)c(OC)cc1O
32	2%	COc1ccc(CCNc2ncnc3sc(C(=O)N4CCCCC4)c(C)c23)cc1OC
33	-13%	NCCCCCCNS(=O)(=O)c1ccc2c(Cl)cccc2c1
34	-36%[inhibitor]	CC(C)(c1ccc(O)cc1)c1ccc(O)cc1
35	-2%	COc1ccc(N2CCN(C(=O)c3cc(NC(C)=O)c4c(c3)ncn4CCc3ccccn3)CC2)cc1
36	-15%	CCC(O)CNC(=O)c1cnn(-c2nccc(-c3cc(C)sc3C)n2)c1C1CC1 (stereo unspecified)
37	-2%	Cc1ccsc1CN1CCc2nnc(CCNC(=O)c3ccc(F)cc3)n2CC1
38	?	CN(C)c1ncc2nc(CCc3ccccc3)c(=O)n(Cc3ccc(F)cc3)c2n1
39	-49%[inhibitor]	N#Cc1ccc(CN2CCC3(CC2)CCN(C(=O)c2csnn2)CC3)cc1
40	-8%	Cc1cc(C=O)cc(C)c1[N+](=O)[O-]
41	-30%	COc1ccc(CNc2ncncc2-c2c(C)noc2C)c(OC)c1
42	-35%[inhibitor]	O=S(=O)(c1ccccc1)N1CCC2(CCCN(C(c3ccccc3)c3ccccc3)C2)CC1
43	-7%	COC(=O)c1ccccc1C(=O)N1CCc2c(cnc(C)c2CNC(=O)c2ccccc2F)C1
44	-15%	Cc1noc(C)c1-c1nc(NCCN2CCOCC2)c2ccccc2n1
45	-39%[inhibitor]	O=C(Nc1ccccc1)N1CCC2(CC1)CCN(C(=O)c1ccco1)CC2
46	-2%	CCc1cc(C(=O)NCC2Cc3cc(-c4ccccc4C(C)=O)ccc3O2)no1 (stereo unspecified)
47	4%	C[C@@H](CSc1ccc(Br)cc1)CN1CC[C@H](NC(=O)OCc2ccccc2)CCC1=O
48	15%	O=c1c(-c2cc(F)cc(F)c2)nc2cnc(N3CCNCC3)nc2n1CCc1ccccc1
49	3%&5%	N#C/C(=C\c1ccc(O)c(O)c1)C(=O)Nc1ccccc1
50	16%	O=C(NC(c1cccnc1)C(F)(F)F)c1cnn(-c2nccc(-c3cccs3)n2)c1C1CC1 (stereo unspecified)

(next part)
cpd	EPAC1 ag val	Molecule
51	?	O=S(=O)(c1ccccc1)N1CCC2(CC1)CN(C(c1ccccc1)c1ccccc1)C2
52	1%	Cc1cc(-c2ccnc(-n3ncc(C(=O)NCC(C)(C)N4CCOCC4)c3C)n2)c(C)s1
53	7%	COC(=O)c1cn([C@@H]2C[C@@H](C(=O)Nc3cccc(SC)c3)N(C3CCCC3)C2)nn1
54	0%	CN1CCc2cc3c(cc2C(=O)Cc2ccc4c(c2C1)OCO4)OCO3
55	1%	COc1ccc(CN2CCC3(CCC(CNC(=O)c4ccco4)O3)CC2)cc1OC (stereo unspecified)
56	?	CN(C)C(=O)Oc1cccc([N+](C)(C)C)c1
57	-4%	CC(C)(C)c1ccc(C(=O)C[n+]2ccc(Cl)c3ccc(Cl)cc32)cc1
58	-92%[inhibitor]	COCCn1c(=O)c(-c2ccc(OC)cc2)nc2cnc(N3CCOCC3)nc21
59	1%	OCCCc1ccccc1
60	-51%[inhibitor]	COc1ccc(C(=O)N2CCC[C@@]3(CCN(Cc4ccncc4)C3)C2)cc1
61	-3%	COc1cc(=O)n(C)c2c(OCC(O)C(C)(C)O)cccc12 (stereo unspecified)
62	23%	CO/N=C(\C(=O)N[C@@H]1C(=O)N2C(C(=O)O)=C(CSc3nc(=O)c(O)nn3C)CS[C@H]12)c1csc(N)n1
63	-37%[inhibitor]	CCOC(=O)C[C@H]1c2cc(C(F)(F)F)ccc2S(=O)(=O)N1Cc1ccccc1
64	18%	O=C(C[n+]1cccc2cccc(O)c21)c1ccc(Br)cc1
65	-3%	Cc1cnc(-n2ncc(C(=O)N(C)C3CCOC3)c2-c2cccs2)nc1-c1ccc(F)cc1 (stereo unspecified)
66	?	CCCN1CCC(=O)N(CCN=[N+]=[N-])CC1
67	0%	OC1(c2cccnc2)CCN(Cc2ccc3c(c2)CN(Cc2cc(F)ccc2F)CCO3)CC1
68	2%	O=C(O)CCC(=O)OC[C@@H](NC(=O)C(Cl)Cl)[C@H](O)c1ccc([N+](=O)[O-])cc1
69	1%	CC1C(=O)OC2C(O)C34C5CC(C(C)(C)C)C36C(OC(=O)C6O)OC4(C(=O)O5)C12O (stereo unspecified)
70	9%	COc1ccc(/C=C/C(=O)c2cc(O)ccc2O)cc1
71	-34%[inhibitor]	COCCn1c(=O)c(-c2ccc(OC)cc2)nc2cnc(N3CCNCC3)nc21
72	-33%[inhibitor]	Clc1ccccc1-c1nccc(NCCN2CCOCC2)n1
73	-114%[inhibitor]	Cc1c(C)c2c(c(C)c1O)CCC(C)(CCCC(C)CCCC(C)CCCC(C)C)O2 (stereo unspecified)
74	-56%[inhibitor]	COCC(=O)N1CCC2(CC1)CN(C(=O)Nc1ccc(OC)cc1)C2
75	-3%	Fc1ccc(CN(C2=NCCN2)c2c(Cl)cccc2Cl)cc1
76	8%	Cc1noc(C)c1C(=O)N1CCC2(CC1)CCN(c1ccncc1)CC2
77	?	COc1ccccc1C1CN(Cc2cccn2-c2ncccn2)Cc2ccccc2O1 (stereo unspecified)
78	-6%	COc1ccccc1-c1nccc(NCc2cccnc2)n1
79	?	O=C(c1ccncc1)N1CCC2(CC1)CN(c1ccccc1)C2
80	3%	COc1cccc(Cn2c(=O)c(C)nc3cnc(N4CCN(C)CC4)nc32)c1
81	-56%[inhibitor]	CN1CCN(c2ncc3nc(-c4ccccc4)c(=O)n(Cc4ccc(F)cc4)c3n2)CC1
82	-5%	Cc1cccc(C2CN(C)CCc3c2cc(O)c(O)c3Cl)c1 (stereo unspecified)
83	9%	Cc1[nH]c2ccccc2c1/C=C/c1cnc2ccccc2n1
84	6%	Cc1cc(C)c(S(=O)(=O)Nc2ccccc2C(F)(F)F)c(C)c1
85	-43%[inhibitor]	CC(=O)N1CCC[C@@]2(CCN(Cc3cc(C(F)(F)F)cc(C(F)(F)F)c3)C2)C1
86	?	Cc1ccc2nc(CNC(=O)c3cc(NC(=O)c4ccccc4)cc4ncn(C5CCCC5)c34)cn2c1
87	6%	O=c1cc(-c2ccc(O)cc2O)oc2ccccc12
88	-5%	NS(=O)(=O)c1ccc(Cl)c(S(N)(=O)=O)c1
89	2%	CN=C(NC)NCc1ccccc1
90	-9%&-7%	CCOC(OCC)P(=O)(O)CCCNCc1ccc(Cl)c(Cl)c1

A different layout for 6 compounds above:
| # | Molecule | EPAC1 ag val |
| --- | --- | --- |
| 81 | CN1CCN(c2ncc3nc(-c4ccccc4)c(=O)n(Cc4ccc(F)cc4)c3n2)CC1 | -56%[inhibitor] |
| 89 | CN=C(NC)NCc1ccccc1 | 2% |
| 90 | CCOC(OCC)P(=O)(O)CCCNCc1ccc(Cl)c(Cl)c1 | -9%&-7% |
| 85 | CC(=O)N1CCC[C@@]2(CCN(Cc3cc(C(F)(F)F)cc(C(F)(F)F)c3)C2)C1 | -43%[inhibitor] |
| 82 | Cc1cccc(C2CN(C)CCc3c2cc(O)c(O)c3Cl)c1 (stereo unspecified) | -5% |
| 86 | Cc1ccc2nc(CNC(=O)c3cc(NC(=O)c4ccccc4)cc4ncn(C5CCCC5)c34)cn2c1 | ? |

Further structures follow.
cpd	EPAC1 ag val	Molecule
91	-59%[inhibitor]	Cc1noc(C)c1C(=O)N1CCC[C@@]2(CCN(Cc3ccc(C#N)cc3)C2)C1
92	18%	CS(=O)(=O)N1CCC2(CC1)CN(c1ncccn1)C2
93	6%	CC1(C)C(=O)C=C[C@]2(C)C1CC(=O)[C@]1(C)C2CC[C@@]2(C)C(c3ccoc3)OC(=O)C3O[C@@]321 (stereo partly specified)
94	-38%[inhibitor]	CC(C)C[C@@H]1NC(=O)[C@H](CCCN)NC(=O)[C@H](C(C)C)NC(=O)[C@@H]2CCCN2C(=O)[C@@H](Cc2ccccc2)NC(=O)[C@H](CC(C)C)NC(=O)[C@H](CCCN)NC(=O)[C@H](C(C)C)NC(=O)[C@@H]2CCCN2C(=O)[C@@H](Cc2ccccc2)NC1=O
95	4%	COc1ccc2cc(CNC3CCS(=O)(=O)C3)c(-c3ccc(OC)c(OC)c3)nc2c1 (stereo unspecified)
96	13%	CC(C)(O)C#Cc1ccc(CN2CCc3nnc(CCNC(=O)c4ccco4)n3CC2)cc1
97	-1%	CN1CCN(c2ncc3nc(CCc4ccccc4)c(=O)n(Cc4ccc(F)cc4)c3n2)CC1
98	14%	Cc1c(C(=O)N2CCCCC2)sc2ncnc(NCCc3ccccn3)c12
99	?	CCNc1ncc2nc(-c3cc(F)cc(F)c3)c(=O)n(-c3ccccc3)c2n1
100	-5%	Nc1nc2c(c(=O)[nH]1)N=C(CNc1ccc(C(=O)NC(CCC(=O)O)C(=O)O)cc1)CN2 (stereo unspecified)
101	-3%&-23%	Cc1cc(OC(=O)c2c(C)cc(O)cc2O)cc(O)c1C(=O)O
102	-45%[inhibitor]	O=C(c1ccncc1)N1CCC[C@@]2(CCN(c3ccncc3)C2)C1
103	8%	CCNc1ncc2nc(CCc3ccccc3)c(=O)n(Cc3ccc(F)cc3)c2n1
104	-97%[inhibitor]	CC1(C)CC[C@]2(C(=O)O)CC[C@@]3(C)C(=CCC4[C@@]5(C)CCC(O)[C@@](C)(CO)C5CC[C@@]43C)C2C1 (stereo partly specified)
105	23%	Cc1ccccc1-c1nc(-n2ccnc2)c2ccccc2n1
106	-3%	COc1ccccc1CN1CCC2(CC1)CCN(C(=O)c1csnn1)CC2
107	?	COc1cccc(Cn2c(=O)c(CCc3ccccc3)nc3cnc(N(C)C)nc32)c1
108	-8%&-10%	COc1cc(C)c(/C=C/C(C)=C/C=C/C(C)=C/C(=O)O)c(C)c1C
109	10%	COc1cc(=O)n2c(c1C(=O)NC(C)c1ccco1)CCN(Cc1cc3ccccc3o1)CC2 (stereo unspecified)

Screen by screen, as entered above:
Compounds 102–106 in EPAC1 ag val read -45%[inhibitor], 8%, -97%[inhibitor], 23%, -3%
